# Compound activity from PubChem.
# AID504770: growth inhibition of E. coli YBA685, primary screen, V. cholerae RctB inhibitors; E. coli YBA685 rctB-dependent plasmid, OD600 growth, 3 h; hits give low values; 130,000 tested, 0.27% active; z-score (test concentration not listed);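 active means z-score under -2 on both plates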;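 further: wells of about 30 µL received 100 nL stock; score is relative to mean and SD of the test wells; the first replicate is given; strong numbers were not always called active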
# CapD inh: Bacillus anthracis CapD inhibitors, primary screen, biochemical, fluorescence intensity | CapD gamma-glutamyltranspeptidase (Bacillus anthracis Ames Ancestor) | purified CapD enzyme, fluorescence intensity read-out; hits give low values; some hits fall short of the stated cut | z-score (test concentration not listed) | 140,000 tested, 0.23% active;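 active means z-score under -4 in either of two replicates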;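 further: stock transfer was 100 nL into about 40 µL; score is relative to mean and spread of the plate; one replicate is shown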
# * marks the source's active call; other numbers are inactive results; nt = no result given; & = joins results of further samples.
SMILES | AID504770 | CapD inh
CCc1ccc(CN(Cc2cn[nH]c2-c2ccc(OC)cc2)C(=O)Nc2ccc(C)cc2C)cc1 | -0.2 | -0.13
CC(OC(=O)c1cccc2ccccc12)C(N)=O (stereo unspecified) | -0.2 | nt
CN(CC(=O)N1CCCC1)S(=O)(=O)c1ccc2c(c1)c(=O)n(C)c(=O)n2C | -0.2 | 0.445
Cc1oc2c(cc(NS(=O)(=O)c3cc(Cl)ccc3Cl)c3ccccc32)c1C(=O)OC(C)C | nt | 0.615
Nn1c(Cc2ccccc2)nnc1SCC(=O)Nc1ccccc1F | 0.35 | nt
CN1CCN(C(=O)c2ccc(NCc3ccc(F)cc3)c(S(=O)(=O)Nc3cccc(C(F)(F)F)c3)c2)CC1 | nt | 1.08
CC(=O)Nc1ccc(-n2c(/C=C/c3cccc4ccccc34)nc3ccccc3c2=O)cc1 | nt | 0.36
NC(=O)c1cc2ccccc2oc1=Nc1ccccc1 | 0.3 | 70.2
CCCNC(=O)c1cccc(Oc2ccccc2)c1 | -0.7 | -0.235
Cc1ccc(NC(=O)N2CC=C(c3c[nH]c4ccccc34)CC2)cc1 | 0.65 | 0.535
Cc1ccc(-c2noc(CN(C(=O)C(c3ccccc3)c3ccccc3)C(C)C)n2)cc1 | 0.2 | -0.76
CNS(=O)(=O)c1ccc(C(=O)NCC(=O)N2CCCC2c2ccc3c(c2)OCCCO3)cc1 (stereo unspecified) | 0.7 | nt
O=c1[nH]c2ccc(NCc3ccc(Cl)cc3)cc2[nH]1 | -0.1 | nt
CSc1ncc(C(=O)NCCN(C)C)c(-c2ccccc2)n1 | 0.6 | -1.85
Cn1c(C(C#N)C(=O)c2ccc(-c3nc4ccccc4s3)s2)nc2ccccc21 (stereo unspecified) | -0.4 | nt
O=C(Nc1ccccc1)NN1CC(=O)N(c2ccc(Cl)cc2)CC1=O | 0.1 | 0.815
O=C(COC(=O)C(Cc1ccccc1)N1C(=O)c2ccccc2C1=O)c1ccc(Br)cc1 (stereo unspecified) | 1.3 | -0.275
COC(=O)c1cc(I)c(OC(C)=O)c(I)c1 | nt | -0.32
CCCCCCCCCC(=O)N1c2ccc(C)cc2C2CN(C)CCC21 (stereo unspecified) | nt | -0.23
CN1CCN(C(CNS(=O)(=O)c2ccccc2)c2cccnc2)CC1 (stereo unspecified) | -0.35 | -0.81

# A draw from above in order of number of heavy atoms, smallest number first.
SMILES | AID504770 | CapD inh
Nn1c(Cc2ccccc2)nnc1SCC(=O)Nc1ccccc1F | 0.35 | nt
Cn1c(C(C#N)C(=O)c2ccc(-c3nc4ccccc4s3)s2)nc2ccccc21 (stereo unspecified) | -0.4 | nt
Cc1oc2c(cc(NS(=O)(=O)c3cc(Cl)ccc3Cl)c3ccccc32)c1C(=O)OC(C)C | nt | 0.615

# Entries of single compounds, quoted from the list. Order of screens: AID504770 | CapD inh
# Cc1ccc(NC(=O)N2CC=C(c3c[nH]c4ccccc34)CC2)cc1 is entered as 0.65 | 0.535
# Cn1c(C(C#N)C(=O)c2ccc(-c3nc4ccccc4s3)s2)nc2ccccc21 (stereo unspecified) is entered as -0.4 | nt

# The list goes on.
SMILES | AID504770 | CapD inh
Cc1nn(CCC(N)=S)c2nc(-c3ccccc3)ccc12 | -1.1 | nt
NS(=O)(=O)c1ccc(CCNC(=O)c2ccc(N3CCCC3=O)cc2)cc1 | 0.05 | nt
COC(=O)C(NC(=O)c1ccc(N2N=C(C)CC2=O)cc1)c1ccccc1 (stereo unspecified) | nt | -1.61
CCOC(=O)C1NC(=O)CC1c1ccccc1 (stereo unspecified) | -2.4 | nt
N#Cc1ccccc1COC(=O)c1ccc(-n2cccc2)cc1 | 0.05 | nt
CCOC(=O)C1(c2cn(C)c3ccccc23)Sc2ccccc2NC1=O (stereo unspecified) | 0.15 | nt
O=C(O)COCC(=O)Nc1ccccn1 | 1.95 | 0.015
Cc1c(C(=O)O)sc2nc(-c3ccccc3)cn12 | 1.2 | nt
O=C(c1cc(=O)c2ccccc2o1)N1CCN(c2n[nH]c(=O)[nH]c2=O)CC1 | 0.7 | nt
CSc1c(C#N)c(N)nc(SCc2ccc(C)cc2)c1C#N | -0.45 | 3.28
CCOc1cc(/C=C2\SC(=S)NC2=O)cc(Cl)c1OC(=O)c1ccc(OC)cc1 | -1.1 | 9.02
COc1ccc(S(=O)(=O)N2CCC(NC(=O)N3CCOCC3)CC2)cc1 | nt | -0.11
O=C(Nc1ccc(Oc2ccc(Cl)c3ccccc23)c(Cl)c1)c1cc(Br)cc(Br)c1O | nt | 2.51
O=C1CCC(=O)N1c1ccc2c(c1)oc1ccccc12 | 0.3 | 0.23
Cc1c(Cl)cccc1NC(=O)CCn1cnnn1 | -0.95 | 0.195
O=C(Cc1c(C(=O)O)[nH]c2ccc(Cl)cc12)NCC1COc2ccccc2O1 (stereo unspecified) | -0.7 | 0.03
CC1(C(=O)O)Sc2[nH]c(=O)sc2C2c3ccccc3OC(=O)C21 (stereo unspecified) | -0.9 | nt
O=C(O)C1C2CCC(CC2)C1C(=O)N1CCN(S(=O)(=O)c2ccc(F)cc2)CC1 (stereo unspecified) | -0.9 | -1.96
COc1cc(-c2nnc(SCc3nc4ccccc4s3)o2)cc(OC)c1OC | -0.1 | nt
N#Cc1ccccc1Cn1cc(C(=O)c2cccs2)c2ccccc21 | -0.65 | 0.415

# Some values from the entries so far.
# AID504770 with `NS(=O)(=O)c1ccc(CCNC(=O)c2ccc(N3CCCC3=O)cc2)cc1` stands at 0.05
# AID504770 with `O=C(O)COCC(=O)Nc1ccccn1` stands at 1.95
# CapD inh with `O=C(Nc1ccc(Oc2ccc(Cl)c3ccccc23)c(Cl)c1)c1cc(Br)cc(Br)c1O` stands at 2.51
# AID504770 with `CC1(C(=O)O)Sc2[nH]c(=O)sc2C2c3ccccc3OC(=O)C21` (stereo unspecified) stands at -0.9
# AID504770 with `CSc1c(C#N)c(N)nc(SCc2ccc(C)cc2)c1C#N` stands at -0.45

# Next records:
SMILES | AID504770 | CapD inh
Cc1cc(=O)oc2cc(NC(=S)N3CCCC3)ccc12 | -0.95 | 23.8
O=S(=O)(c1cccc(-c2nnc(Sc3ncnc4sc5c(c34)CCC5)o2)c1)N1CCCCC1 | 0.95 | nt
C=CCn1c(CSc2nnc(-c3ccccc3)n2C)n[nH]c1=S | -0.35 | -0.15
OC(CNCc1ccc(OC(F)(F)F)cc1)C(F)(F)F (stereo unspecified) | 0.3 | -0.47
CCOC(=O)c1ccc(NC(=O)CCCN2CCN(Cc3ccccc3)CC2)cc1 | nt | -0.015
COc1ccccc1C(=O)COC(=O)Cc1ccccc1F | -0.85 | -0.1
O=C1CN(C(=O)C2CC2)C(c2ccccc2)c2cc(Cl)ccc2N1 (stereo unspecified) | -0.15 | -1.15
CC1(C)C(C)(C(=O)O)C12CCC2C(=O)NCc1ccco1 (stereo unspecified) | 0.05 | nt
S=C(Nc1cccnc1)N(CCc1ccccc1)Cc1ccccc1 | -0.95 | -0.325
CCOC(=O)C1=CN(Cc2ccc(F)cc2)C=C(C(=O)OCC)C1c1ccc(C(F)(F)F)cc1 | 0.95 | -0.53
Cc1cccc(NC(=O)NCc2nc(-c3cccc(C)c3)no2)c1 | 3.25 | -0.71
CC(=O)N1N=C(N)SC1c1ccccc1 (stereo unspecified) | -1.35 | nt
O=C(NCCN1CCOCC1)c1cc(S(=O)(=O)N2CCOCC2)ccc1Sc1ccc(Br)cc1 | nt | -0.2
CC(=O)OCc1ccoc1C[N+](C)(C)C | -0.55 | -0.185
COC(=O)CSc1nc(-c2cccs2)cc(C(F)(F)F)c1C#N | nt | 17.1
COC(=O)c1sc2ncccc2c1OCc1c(Cl)cccc1Cl | nt | 3.59
CCCCN(C)c1sc(S(C)(=O)=O)nc1S(=O)(=O)c1ccc(C)cc1 | 0.2 | 3.03
N#Cc1c(/N=C/c2c(O)n(Cc3ccco3)c(=O)[nH]c2=O)sc2c1CCCC2 | -0.85 | -0.435
O=C(CN1CCN(c2ncnc3scc(-c4ccc(Cl)cc4)c23)CC1)NC1CC1 | -4.9* | nt
CCN1CCN(C(=O)/C(C#N)=N/Nc2cccc3c(=O)[nH][nH]c(=O)c23)CC1 | -1.15 | nt
Cc1ccc(C(=O)Oc2ccc(C(c3c(C)[nH]n(-c4ccccc4)c3=O)c3c(C)[nH]n(-c4ccccc4)c3=O)cc2)cc1 | nt | -0.215
O=S(=O)(/C=C/c1ccccc1)N1CCN(Cn2cnc3ccccc32)CC1 | 0.05 | nt
O=C(CSc1nnc(NC(=O)C2CCCCC2)s1)Nc1ccc(F)cc1 | -0.5 | 0.15
CN(C(=O)COC(=O)c1ccc(=O)[nH]c1)C1CCCCC1 | -0.05 | nt
COc1ncnc(NS(=O)(=O)c2ccc(N)cc2)c1OC | nt | -0.245
CCOC(=O)c1nc(C)nc(Sc2ccccc2)c1C | 0.05 | 0.15
O=C(COc1ccc2c(c1)OCO2)NCCC1=CCCCC1 | -0.65 | nt
CCc1ccc(OCC(N)=O)cc1 | -0.55 | 2.8
COc1ccc(-c2nc(-c3ccc(OC)cc3OC)[nH]c2-c2ccc(OC)cc2)cc1 | nt | -0.07
COc1ccc(Cn2ccc3nc4ccn(Cc5ccc(OC)cc5)c(=O)c4cc3c2=O)cc1 | -0.25 | 3.08
Cc1cc(C)c(C#N)c(=O)[nH]1 | 0.95 | nt
CC(C)(C)OC(=O)NC(COC(=O)NNC(=O)c1ccccc1-n1cccc1)CC1CCCCC1 (stereo unspecified) | nt | -0.225
NC1=NC(c2ccccc2)N2C(=N1)Sc1ccccc12 (stereo unspecified) | -0.55 | 0.295
Cc1ccc(CCNc2ccccc2)c[n+]1[O-] | -0.9 | -0.145
COc1ccccc1C(=O)N=C1SC2CS(=O)(=O)CC2N1c1ccccc1 (stereo unspecified) | -0.35 | 0.08
Cn1c(=O)n(C)c2cc(C3C(C#N)=C(N)Oc4c3ccc3ccccc43)ccc21 (stereo unspecified) | -0.4 | -0.015
CCCn1c(=O)c(=O)[nH]c2c(=O)oc3ccccc3c21 | -0.9 | 0.35
O=C1NC(=O)C(=Cc2ccccc2)C(=O)N1 | 0.8 | 0.41
c1csc(-c2ccnc3nc(-n4cccc4)nn23)c1 | 0.95 | 28
CC1CCCC(C)N1C(=O)COC(=O)/C=C/c1ccccc1Cl (stereo unspecified) | 0.2 | nt
Cc1cc(C)cc(CC(CC(=O)O)C(=O)NCc2ccccc2)c1 (stereo unspecified) | 0.1 | 0.21
O=C(O)CSc1nnc2c(n1)OC1(CCCC1)Nc1ccccc1-2 | 1.7 | -0.52
CCOc1ccccc1NC(=O)CN1C(=O)/C(=C/c2cccc(Br)c2)SC1=S | nt | -0.69
COC(=O)CSc1cccc2cccnc12 | -0.75 | 76
O=C1ON=C(c2cccs2)/C1=C/C=C/c1ccccc1 | 0 | -1.46
COc1ccc(C2CC(C(F)(F)F)n3ncc(C(=O)Nc4sc5c(c4C(=O)OC(C)C)CCCC5)c3N2)cc1OC (stereo unspecified) | nt | 6.77
CCc1cc(C(=O)Cc2nc3ccccc3n2C)c(O)cc1O | 0.85 | 1.74
CCOC(=O)C1CCN(c2cc(C(=O)Nc3ccc(OCC)cc3)ccn2)CC1 | 0 | -0.1
CC1CCN(C(=S)SCC(=O)O)CC1 | -0.25 | nt
CC(CCc1ccccc1)Nc1nc(Cl)nc(NCCN2CCOCC2)n1 (stereo unspecified) | nt | -0.45
COc1ccc(N2CCN(S(=O)(=O)c3ccc(F)c(C(=O)Nc4cc(Cl)cc(Cl)c4)c3)CC2)cc1 | nt | -0.895
O=C(O)c1ccccc1OCCN1CCCC1=O | 0 | nt
CCN(c1ccccc1)S(=O)(=O)c1ccc(C)cc1 | -0.55 | -0.21
Cc1cc(=O)n(C)c(=O)n1CCCCO | 0.2 | nt
Cc1ccc(-c2cncnc2NC(=O)c2ccccc2)cc1 | -0.6 | -0.535
Cc1cccc(Nc2nc(N)nc(C(F)(F)F)n2)c1 | -0.3 | -0.19
CCOC(=O)c1c(CN2CCN(CC#N)CC2)n(-c2ccccc2)c2ccc(O)cc12 | 0 | 0.34
CCC(=O)NC(Nc1sc2c(c1C(N)=O)CCCC2)(C(F)(F)F)C(F)(F)F | -0.65 | 1.13
COc1cc(C(=O)NNC(=O)OCC2(c3ccc(Cl)cc3)CC2)ccc1O | nt | -0.665
COc1ccccc1C(=O)NCc1nnc(SCC(=O)N2N=C(c3cccs3)CC2c2ccc(F)cc2)n1C (stereo unspecified) | nt | 10.7

# Carrying on:
SMILES | AID504770 | CapD inh
O=C(NC1CCCC1)C(c1ccccc1)N(Cc1cccs1)C(=O)c1csnn1 (stereo unspecified) | 1 | nt
CCc1ccc(NS(=O)(=O)c2ccc(OC)cc2)cc1 | 0.4 | -0.305&-0.465
CC(OC(=O)c1ccc(S(=O)(=O)NCc2ccco2)cc1)C(=O)Nc1ncc(Cl)cc1Cl (stereo unspecified) | -0.15 | nt
COC(=O)c1cc(OC)c(OC)cc1NC(=O)c1nc(-c2ccccc2)oc1C | 2.5 | nt
N#CC(C#N)=C(N)/C(C#N)=C/c1cccs1 | -0.4 | nt
NS(=O)(=O)c1cc([N+](=O)[O-])c(N2CCN(S(=O)(=O)c3cccc(F)c3)CC2)s1 | nt | -1.5
O=c1cc(O)sc2ccccc12 | 0.25 | -0.24
c1ccc(C2CN3CCC2CC3)cc1 (stereo unspecified) | 0.1 | -0.135
CN(C)S(=O)(=O)c1ccc(-c2nc3ccccc3s2)cc1 | 0.35 | nt
CCOc1ccc(/C(=N/O)C(C)NO)cc1 (stereo unspecified) | -0.65 | 0.085
CCc1ccc(-c2ccc(C(=O)N3CCN(Cc4ccc5c(c4)c4ccccc4n5CC)CC3)cc2)cc1 | nt | 12.5
N#CCSc1nc2ccccc2c(=O)n1CCCC(=O)NCC1CCCO1 (stereo unspecified) | 0.05 | -0.005
COc1ccccc1C(=O)N/C(=C/c1ccc2c(c1)OCO2)C(=O)Nc1cccc(C(=O)O)c1 | nt | -0.56
CCOC(=O)c1c(C)n(CC)c2cc(Br)c(OC)cc12 | -0.3 | -0.405
CN(c1ncnc2onc(-c3ccc(F)cc3)c12)C1CCCCC1 | 0.85 | 0.34
C/C(=N\NC(=O)CN1CCCC1=O)c1ccc(NC2=NCCCS2)cc1 | -0.5 | nt
